Ecoli rRNA inh = inhibitors of bacterial rRNA selective over humanized ribosomes; actives 1.6% (n = 350,000); GFP signal change (wild-type ribosome), % (no concentration beside the values); AID 720706; E. coli WT GFP vs humanized-ribosome RFP mutants, fluorescence, 24 h; hits give low values; DMSO median 0, no signal -100;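 active means significant combined selectivity score with lowered wild-type GFP, culture density cut under 30%, mutant RFP and density less affected; inactive means any of these conditions unmet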; further: one replicate is shown; some compounds called inactive have numbers as strong as hits
AF4-AF9 inh = MLL-AF4/AF9 protein interaction inhibition; inhibition, % at 10 µM; P42568; AlphaScreen, biotin-AF4 peptide binding to FLAG-AF9; actives 0.47% (n = 350,000);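 active means every replicate reaching a set inhibition limit, whatever the replicate mean, cut at about 25% in these data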;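 further: 0% = plate neutral control median and 100% = total signal loss; the record names both 10 and 1 µM as test concentration; the first replicate is given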
Target sequence (P42568 whole entry, looked up): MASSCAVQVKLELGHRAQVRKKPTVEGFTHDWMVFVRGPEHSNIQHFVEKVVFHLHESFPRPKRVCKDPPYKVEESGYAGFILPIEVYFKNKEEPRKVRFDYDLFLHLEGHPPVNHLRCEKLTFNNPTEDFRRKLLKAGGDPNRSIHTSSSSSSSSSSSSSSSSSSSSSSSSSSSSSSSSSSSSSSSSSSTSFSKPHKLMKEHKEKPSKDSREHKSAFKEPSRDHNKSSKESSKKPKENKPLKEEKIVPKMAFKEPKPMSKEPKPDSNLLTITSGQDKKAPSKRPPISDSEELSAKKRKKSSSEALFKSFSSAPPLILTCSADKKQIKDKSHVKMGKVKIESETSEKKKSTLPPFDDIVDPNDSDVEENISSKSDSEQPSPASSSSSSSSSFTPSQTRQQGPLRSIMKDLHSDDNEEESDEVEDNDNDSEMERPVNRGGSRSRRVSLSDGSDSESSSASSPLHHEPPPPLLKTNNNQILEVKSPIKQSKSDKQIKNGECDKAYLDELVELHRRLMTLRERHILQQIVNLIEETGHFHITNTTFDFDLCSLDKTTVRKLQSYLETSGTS
Ecoli rRNA inh OD600 = second read-out of Ecoli rRNA inh, no call of its own (marks repeat the call); OD600 change, %; measured here: OD600 growth;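 optical density of the mix in the first replicate; 0 = DMSO median and -100 = no signal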
Ecoli rRNA inh RFP = also measured in Ecoli rRNA inh; calls as there; RFP signal change, %; measured here: RFP humanized mutant strains;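 first replicate; 0 = DMSO median and -100 = no signal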
Numbers without * were called inactive.

SMILES	Ecoli rRNA inh	Ecoli rRNA inh OD600	Ecoli rRNA inh RFP	AF4-AF9 inh
COCC(=O)N1[C@@H](CO)[C@@H](c2ccccc2)C12CN(C(=O)c1ccccc1)C2	-2	12	-1.9	-2.6
Cc1noc(C)c1NC(=O)N(C)C[C@H]1Oc2c(NS(=O)(=O)c3ccc(F)cc3)cccc2C(=O)N([C@@H](C)CO)C[C@@H]1C	0	6	-0.6	-0.7
Cc1ccccc1S(=O)(=O)N1CC(=O)N2[C@H](CO)[C@@H](c3ccc(C#CC4CC4)cc3)[C@@H]2C1	3	-36	36	-1.7
C[C@@H]1CN([C@@H](C)CO)C(=O)c2cccc(NS(=O)(=O)c3ccccc3)c2O[C@@H]1CN(C)Cc1ccc(-c2ccccc2)cc1	0	1	-0.1	0.0
CC(C)CC#Cc1ccc2c(c1)O[C@@H](CN(C)C(=O)Cc1cccnc1)[C@@H](C)CN([C@@H](C)CO)S2(=O)=O	2	-18	11	11
C[C@@H]1CN([C@H](C)CO)C(=O)Cc2cc(NC(=O)c3ccncc3)ccc2O[C@@H]1CN(C)Cc1ccc(Cl)c(Cl)c1	-2	-4	1.0	3.5
CC(=O)N1[C@@H]2c3ccc(-c4ccccc4)c(=O)n3C[C@@H]2[C@@H](CO)[C@@H]1C(=O)N1CCCCC1	1	17	-1.8	-1.6
O=C(Nc1cccc2c(=O)[nH][nH]c(=O)c12)c1ccc([N+](=O)[O-])cc1	-9	-11	-3.4	-6.0
C[C@H]1CN([C@@H](C)CO)C(=O)Cc2cc(NC(=O)Cc3ccccc3)ccc2O[C@@H]1CN(C)Cc1ccc(C(=O)O)cc1	2	-3	1.7	-3.8
C[C@@H]1CN([C@@H](C)CO)C(=O)c2cc(NC(=O)CCC(F)(F)F)ccc2O[C@@H](C)CCCCO[C@@H]1CN(C)C(=O)NC1CCCCC1	-5	-3	1.6	0.5
CCN1[C@@H]2Cn3c(ccc(-c4ccc(F)cc4)c3=O)[C@H]1[C@@H](C(=O)Nc1ccccc1)[C@@H]2CO	-3	-1	-0.4	-3.7
C[C@H]1CN([C@@H](C)CO)C(=O)c2cc(NC(=O)Nc3ccc(F)cc3)ccc2O[C@@H]1CN(C)C(=O)Nc1ccc(F)cc1	7	10	-1.9	-2.1

An excerpt from above in order of formula weight, highest first:
SMILES	Ecoli rRNA inh	Ecoli rRNA inh OD600	Ecoli rRNA inh RFP	AF4-AF9 inh
C[C@@H]1CN([C@@H](C)CO)C(=O)c2cccc(NS(=O)(=O)c3ccccc3)c2O[C@@H]1CN(C)Cc1ccc(-c2ccccc2)cc1	0	1	-0.1	0.0
C[C@@H]1CN([C@H](C)CO)C(=O)Cc2cc(NC(=O)c3ccncc3)ccc2O[C@@H]1CN(C)Cc1ccc(Cl)c(Cl)c1	-2	-4	1.0	3.5
COCC(=O)N1[C@@H](CO)[C@@H](c2ccccc2)C12CN(C(=O)c1ccccc1)C2	-2	12	-1.9	-2.6

(next part)
SMILES	Ecoli rRNA inh	Ecoli rRNA inh OD600	Ecoli rRNA inh RFP	AF4-AF9 inh
O=C(O)C[C@@H]1C[C@@H]2c3cc(NC(=O)CC4CC4)ccc3O[C@@H]2[C@H](CO)O1	1	13	0.5	-2.0
OC(c1ccccc1)(c1ccccc1)C1CCN(CCCOc2ccc(C(F)(F)F)cc2)CC1	-57	-75	-14	-0.4
COCC(=O)Nc1ccc2c(c1)C(=O)N(C)[C@@H]1CC[C@@H](CC(=O)NCCc3ccncc3)O[C@H]1CO2	1	-6	-3.2	-0.6
O=S(=O)(NC[C@@H]1[C@@H](c2ccccc2)[C@H](CO)N1CC1CC1)c1ccccc1	-5	-6	1.4	1.0
CN(C(=O)c1cccc(NC(=O)Cc2cccc(NC(=O)C3CCCN(C(=O)c4ccccc4)C3)c2)c1)C1CCC1 (configuration not stated)	3	-12	4.5	-4.7
N#C[C@@H]1[C@H](c2ccc(C#CC3CCCC3)cc2)[C@H](CO)N1C(=O)c1cccc(F)c1	1	1	1.1	-1.3
O=C(c1cccnc1)N1CCCCN2[C@@H](CO)[C@H](c3ccc(C#Cc4cccnc4)cc3)[C@@H]2C1	-4	1	2.1	-1.4
C[C@H](CO)N1C[C@H](C)[C@H](CN(C)Cc2ccc(C(=O)Nc3ccccc3N)cc2)Oc2ccc(NS(=O)(=O)c3cccs3)cc2CC1=O	-8	-14	0.6	6.9
Brc1cccc(-c2nc3c4ccccc4ccn3c2Cc2ccccc2)c1	10	8	11	-0.6
CCCNC(=O)Nc1ccc2c(c1)C(=O)N(C)C[C@H](OC)[C@H](C)CN(C(=O)C1CCOCC1)[C@@H](C)CO2	-1	-1	-0.6	0.9
CN1C(=O)c2cc(NC(=O)c3ccc(F)c(F)c3)ccc2OC[C@H]2O[C@H](CC(=O)N[C@@H]3CCN(Cc4ccccc4)C3)CC[C@@H]21	1	1	0.3	8.6
CO[C@@H]1CN(C)C(=O)c2ccc(NC(=O)Cc3ccccc3)cc2OC[C@H](C)NC[C@H]1C	0	2	1.4	0.8

For reference, 4 of the compounds above:
SMILES	Ecoli rRNA inh	Ecoli rRNA inh OD600	Ecoli rRNA inh RFP	AF4-AF9 inh
C[C@H]1CN([C@@H](C)CO)C(=O)c2cc(NC(=O)Nc3ccc(F)cc3)ccc2O[C@@H]1CN(C)C(=O)Nc1ccc(F)cc1	7	10	-1.9	-2.1
O=C(O)C[C@@H]1C[C@@H]2c3cc(NC(=O)CC4CC4)ccc3O[C@@H]2[C@H](CO)O1	1	13	0.5	-2.0
OC(c1ccccc1)(c1ccccc1)C1CCN(CCCOc2ccc(C(F)(F)F)cc2)CC1	-57	-75	-14	-0.4
COCC(=O)Nc1ccc2c(c1)C(=O)N(C)[C@@H]1CC[C@@H](CC(=O)NCCc3ccncc3)O[C@H]1CO2	1	-6	-3.2	-0.6

More results follow.
SMILES	Ecoli rRNA inh	Ecoli rRNA inh OD600	Ecoli rRNA inh RFP	AF4-AF9 inh
CCc1ccc(CCC(=O)N2CCN(S(=O)(=O)c3sc(C(=O)O)c(C)c3C(=O)O)CC2)cc1	4	17	7.6	-5.2
CCCNC(=O)Nc1ccc2c(c1)C(=O)N(C)C[C@H](OC)[C@H](C)CN(C(=O)C1CCCCC1)[C@@H](C)CO2	0	-3	1.4	-3.6
CCS(=O)(=O)N1CC(=O)N2[C@H](CO)[C@@H](c3ccc(C#CCC4CCCC4)cc3)[C@H]2C1	-54	-73	-3.9	11
COc1cccc(CNS(=O)(=O)c2ccccc2Br)c1OC	0	4	0.3	-1.4
O=C(C[C@H]1CC[C@H](NC(=O)c2ccccc2)[C@@H](CO)O1)Nc1ccc(-c2ccccc2)cc1	-3	5	-1.9	-2.5
CCCCNCCS(=O)(=O)NCc1ccccc1	4	1	-1.7	-0.5
CC(C)NC(=O)N(C)C[C@H]1OCCCC[C@H](C)Oc2ccc(NC(=O)CCCN(C)C)cc2C(=O)N([C@@H](C)CO)C[C@H]1C	4	7	-0.2	-3.6
C[C@@H]1CN([C@@H](C)CO)C(=O)c2cc(-c3cccnc3)cnc2O[C@H]1CN(C)C(=O)NC1CCCC1	2	-8	1.1	-14
COc1ccc2c3c([nH]c2c1)[C@H](CO)NCC31CCN(C(=O)C2CCC2)CC1	4	24	-1.7	0.6
COc1ccc(NC(=O)N(C)C[C@@H]2OCCCC[C@H](C)Oc3ccc(NC(=O)Nc4c(C)noc4C)cc3C(=O)N([C@@H](C)CO)C[C@@H]2C)cc1	1	4	-2.2	0.0
C[C@@H]1CN([C@@H](C)CO)C(=O)c2cc(NS(=O)(=O)c3ccc(F)cc3)ccc2O[C@@H](C)CCCCO[C@@H]1CN(C)C(=O)CCCN(C)C	2	-1	-1.2	2.0
O=C(C[C@H]1CC[C@@H]2[C@H](COC[C@@H](O)CN2Cc2nccs2)O1)NCc1ccc(Cl)cc1	1	6	-11	-1.3
CN1CCC(C)(C(=O)Nc2cccc(Oc3ccccc3)c2)C1 (configuration not stated)	3	-3	-4.9	1.0
C[C@H]1CN([C@@H](C)CO)C(=O)c2cc(C#CCN(C)C)cnc2O[C@H]1CN(C)C	6	24	-1.4	-1.8
CCN(CC)S(=O)(=O)c1cc(C(=O)Nc2cc(S(=O)(=O)N3CCOCC3)ccc2N2CCN(C)CC2)ccc1C	-3	-8	6.1	5.2
CCOC(=O)n1c2ccccc2c(=O)n1CCO	13	17	5.5	-3.4
CC(=O)Nc1cccc(-c2ccnc3c2CC(C(=O)NCc2ccc(N4CCN(C)CC4)cc2)O3)c1 (configuration not stated)	-1	8	-1.8	1.0
COc1ccc(NC(=O)N(C)C[C@@H]2Oc3ccc(NS(=O)(=O)c4c(C)noc4C)cc3CC(=O)N([C@@H](C)CO)C[C@@H]2C)cc1	2	1	-0.2	-31
O=C(C[C@@H]1CC[C@H](NC(=O)c2ccc(F)cc2)[C@@H](CO)O1)NCc1ccncn1	3	1	-3.6	0.4
CCCCC(=O)N(C)c1c(CC)nc2c(OCC(=O)N(C)C)cccn12	11	20	0.5	0.0
O=C(C[C@@H]1C[C@H]2c3cc(NC(=O)NC4CCCCC4)ccc3O[C@H]2[C@@H](CO)O1)NCCc1ccccc1	-7	-11	-2.1	-0.7
CC(C)N(C[C@H]1[C@@H](c2ccccc2)[C@@H](CO)N1CC1CC1)C(=O)C1CCC1	4	6	1.1	-4.3
C=C(C)Cn1c2ccc(NC(=O)NCC)cc2c(=O)n1C	5	11	-1.2	0.9
O=C(C1CC1)N1CC2(C1)[C@H](c1ccccc1)[C@@H](CO)N2C(=O)c1cccnc1	3	9	-2.5	-4.1
COc1ccc(-c2ccc([C@@H]3[C@@H](CO)N4C(=O)CN(C(=O)Cc5ccccn5)C[C@@H]34)cc2)cc1	-4	-3	3.4	0.6
CC(C)c1cn(CC[C@H]2CC[C@H](N)[C@@H](CO)O2)nn1	2	2	0.9	-1.9
CN1CCN(C(=O)C[C@H]2CC[C@@H]3[C@@H](COc4ccc(NC(=O)c5ccc(F)c(F)c5)cc4C(=O)N3C)O2)CC1	2	2	-0.4	-1.3
Cc1noc(C)c1S(=O)(=O)Nc1ccc2c(c1)C(=O)N([C@@H](C)CO)C[C@H](C)[C@@H](CN(C)S(=O)(=O)c1ccccc1)OCCCC[C@@H](C)O2	1	-6	13	3.8
CC(=O)OCC(COC(C)=O)(CN1C(=O)c2ccccc2C1=O)CN1C(=O)c2ccccc2C1=O	-1	2	1.3	2.0
COc1ccc(NC(=O)N(C)C[C@H]2Oc3ccc(NC(=O)Cc4cn(C)c5ccccc45)cc3CC(=O)N([C@@H](C)CO)C[C@@H]2C)cc1	5	3	-0.5	0.3
CN(C)CCCNC(=O)C[C@H]1C=C[C@@H](NS(=O)(=O)c2ccccc2)[C@@H](CO)O1	3	3	-0.4	-2.6
O=C(Nc1ccc(F)cc1)OC[C@@H]1CSCCS(=O)(=O)N1	-1	-2	-0.1	0.5
C[C@@H](NC(=O)C[C@@H]1C=C[C@H](NC(=O)C2CC2)[C@@H](CO)O1)c1ccccc1	1	-4	-1.1	-0.4
C[C@@H]1CN([C@@H](C)CO)C(=O)Cc2cc(NS(=O)(=O)c3ccc(Cl)cc3)ccc2O[C@H]1CN(C)Cc1ccc(C(=O)O)cc1	7	8	-2.9	-5.9
CCCNC(=O)C[C@@H]1CC[C@H]2[C@H](COc3ccc(NC(=O)c4cccc(F)c4)cc3C(=O)N2C)O1	-2	0	-1.4	0.6
CCc1nc2ccc(C(=O)NCCOc3ccc(OC)cc3)cn2c1N(C)Cc1cccs1	-17	-21	2.5	-0.6
O=C(NC1CCCCC1)C1c2ccccc2OCC(=O)N1CCc1c[nH]c2ccccc12 (configuration not stated)	-22	-34	-5.0	4.9
O=C(NC[C@@H]1[C@@H](c2ccccc2)[C@@H](CO)N1Cc1cccnc1)c1ccccn1	-1	0	0.1	0.1
C[C@@H]1CN([C@H](C)CO)C(=O)c2cc(NS(=O)(=O)c3ccccc3)ccc2O[C@@H](C)CCCCO[C@@H]1CN(C)Cc1ccc(C(F)(F)F)cc1	3	17	6.1	0.5
O=C1NC[C@H](CCCCN2CCN(CC3CCCCC3)C(=O)C2=O)N(Cc2ccccc2)C1=O	8	17	-1.5	-5.5
C[C@@H]1CCCCO[C@@H](CN(C)Cc2ccc(C(=O)O)cc2)[C@@H](C)CN([C@H](C)CO)C(=O)c2cc(NC(=O)Nc3ccc(C(F)(F)F)cc3)ccc2O1	3	6	-2.7	-0.3
CCCNC(=O)N1CC2(C1)[C@H](c1ccccc1)[C@H](CO)N2C(=O)C1CCCC1	2	9	-1.2	-2.4
CCOC(=O)C1=C[C@@H](C(C)(C)C)N(S(=O)(=O)c2ccc([N+](=O)[O-])cc2)[C@H]1c1cccc(Cl)c1	20	8	-1.0	9.8
CCN1[C@@H]2c3ccc(C4=CCCCC4)c(=O)n3C[C@H]1[C@H](CO)[C@H]2C(=O)NCc1ccccn1	-1	6	-1.3	5.5
CCC(=O)N[C@H]1CC[C@H](CCNC(=O)Nc2ccc(C(F)(F)F)cc2)O[C@@H]1CO	-57	-79	-17	11
C[C@@H]1CN([C@@H](C)CO)C(=O)Cc2cc(NS(=O)(=O)c3cn(C)cn3)ccc2O[C@H]1CN(C)S(=O)(=O)c1ccc(F)cc1	5	7	-2.2	-6.6
C[C@@H](O)C#Cc1ccc([C@@H]2[C@H](CO)N3CCCCN(S(=O)(=O)c4ccccc4)C[C@@H]23)cc1	2	1	1.5	0.0
CC(C)NC(=O)C1(C)CCN1Cc1cccc(Cl)c1 (configuration not stated)	5	0	-4.5	-2.5
CN(C)CCCNc1nc2cc(-c3ccsc3)sc2c(=O)n1C	16	26	5.8	-1.6

Assay outcomes (PubChem)

Only part of the results is shown; count on the stated rates, not on these rows.
